Prx2 Sm inh: inhibitors of Schistosoma mansoni peroxiredoxin 2; 65,000 compounds, 0.07% hits; S. mansoni Prx2 activity coupled to TGR/GSH (TGR is thioredoxin glutathione reductase), NADPH fluorescence loss, qHTS; some inactives read as strong as hits; Potency, µM; AID 448; active means full or partial inhibition curve with a strong effect at the top dose; inconclusive means weaker partial or single-point curve; inactive means no accepted curve; also: series up to 57 µM; many of its hits are not listed in these tables
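Coupled assay in which S. mansoni TGR passes NADPH reducing equivalents via glutathione to Prx2, which reduces H2O2. Compounds were preincubated 15 min at room temperature with 25 nM TGR/50 nM Prx2 mix. Kinetic NADPH fluorescence loss (ex 365/em 450 nm) was monitored.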
Anthrax LT inh: blocks cellular internalization of anthrax lethal toxin; 70,000 compounds, 0.67% hits; Cells, anthrax lethal toxin internalization, FRET ratio (460/530); Potency, µM (doses to about 40 µM), for the others: at the highest dose activity change, negative = inhibition, actives largely listed as inhibitors; active = well fitted falling ratio curve with the 530 nm signal flat; inconclusive = other ratio curves, or a change in one channel alone; inactive = flat curves in the ratio and both channels; the % refers to the ratio; also: % is scaled to controls: 0 for no effect and ±100 for the full control effect; nearly all actives have a fitted effect of over 50% in size; tested in ME-180 cells; beta-lactamase reporter
* = called active by the depositor; ? = inconclusive; . = no result given; & = joins results of further samples; ! = not confirmed by another sample; [ ] = dose if it differs, or a comment. Potency is read from the fitted curve at half-maximal effect. The list is partial. The share of hits here may be higher or lower than overall.

SMILES	Prx2 Sm inh	Anthrax LT inh
O=C(NCCCn1ccnc1)c1cc2c(s1)CCCCC2	>57	?
CCOC(=O)c1cccc(NC(=O)CS(=O)(=O)Cc2nc(-c3cccc(OC)c3)oc2C)c1	>57	-9%
CCC(C)NC(=O)CSc1nnc(-c2ccncc2)n1-c1ccc(OC)cc1 (configuration not stated)	>57	?
O=C(Cc1ccc(-n2cccc2)cc1)N1CCc2ccccc21	>57	-9%
CN(c1ccc(C(=O)NCCSC(C)(C)C)cc1)S(C)(=O)=O	>57	4%
CCNc1ncc2nc(-c3ccc(Cl)cc3)c(=O)n(-c3ccccc3)c2n1	>11	?
COc1ccc(CNC(=O)C2COc3ccccc3O2)cc1 (configuration not stated)	>57	-1%
FC(F)(F)c1cc(CN2CC3(CCNCC3)C2)cc(C(F)(F)F)c1	>57	?
COC(=O)CN(C)C1CC(=O)N(c2ccc(Cl)cc2)C1=O (configuration not stated)	>57	-11%
CCn1c(COc2ccccc2C)nnc1SCC(=O)CC(=O)Nc1ccccc1OC	>57	-5%
CC(=O)N1CCN(CCN=CC2=C(O)CC(c3ccco3)CC2=O)CC1 (configuration not stated)	>57	-18%
COc1ccc(CCNC(=O)CSc2nnnn2-c2ccccc2OC)cc1OC	>57	2%
COC(=O)c1[nH]c(C)c(/C(O)=C2\C(=O)C(=O)N(CCCN3CCOCC3)C2c2ccccn2)c1C (configuration not stated)	>57	-3%
Cc1cc(Cl)ccc1OCC(=O)O	>57	-3%
COc1cccc(NC(=O)N(CCCN2CCOCC2)C(C)c2cc3cccc(OC)c3o2)c1 (configuration not stated)	>57	7%
Cc1noc(C)c1COc1ccc(C(=O)OCc2nnc(-c3ccc(Cl)cc3)o2)cc1	>57	?
Cc1cccc2cc3c(N)c(C(=O)N4CCOCC4)sc3nc12	>57	14%
CCN(CC)CCCN1C(=O)c2oc3ccccc3c(=O)c2C1c1cccc(OC)c1OC (configuration not stated)	>57	-5%
O=C(c1ccc2nc(N3CCOCC3)sc2c1)N1CCC2(CC1)OCCO2	>57	-5%
CN1C=CC2=C(C#N)C(N)C(C#N)(C#N)C(c3ccccc3)C2C1 (configuration not stated)	>57	?
COc1ccc(S(=O)(=O)n2nc(OC(=O)c3ccco3)cc2N)cc1	.	-22%
CC1CCN(C(=O)c2ccc(N(C)S(C)(=O)=O)cc2)CC1	>57	-7%
CCOC(=O)CSc1nnc(-c2ccoc2C)n1-c1ccc(OCC)cc1	>57	?
CCOC(=O)c1c(C)n(C)c2ccc(O)c(CN(C)C)c12	>57	?

Profiles, looked up by structure:
Profile of `CN1C=CC2=C(C#N)C(N)C(C#N)(C#N)C(c3ccccc3)C2C1` (configuration not stated) : Prx2 Sm inh = >57; Anthrax LT inh = ?
Profile of `O=C(c1ccc2nc(N3CCOCC3)sc2c1)N1CCC2(CC1)OCCO2` : Prx2 Sm inh = >57; Anthrax LT inh = -5%
Profile of `COc1cccc(NC(=O)N(CCCN2CCOCC2)C(C)c2cc3cccc(OC)c3o2)c1` (configuration not stated) : Prx2 Sm inh = >57; Anthrax LT inh = 7%

New compounds follow.
SMILES	Prx2 Sm inh	Anthrax LT inh
CCCCCCC#CC1C=CC(Oc2ccc(C=O)cc2)C(CO)O1 (configuration not stated)	.	-49%[8 µM]
O=C(NCCCc1ccccc1)C1CC(=O)N(c2ccc3c(c2)OCCO3)C1 (configuration not stated)	>57	7%
CCN(c1ccccc1)c1cc(C)nc2nc(C)nn12	>57	3%
CCC(C)NC(=O)CS(=O)Cc1nc(-c2cccc(C)c2)oc1C (configuration not stated)	>57	-3%
Cc1ccccc1CN1C(=O)C2(OCCCO2)c2ccccc21	>57	?
N#Cc1c(N)sc2c1CCCCCC2	>57	?
C=C(C)COc1ccc(-c2nc(N)ncc2Oc2ccccc2OC)c(O)c1	>57	?
O=C(Nc1ccccn1)C1(c2ccccc2)CCCC1	.	-23%
CCOC12NC(=O)CC(=O)N1C(c1ccccc1)=CS2 (configuration not stated)	>57	-1%
COc1ccc(NC(=O)C(c2ccc(C)cc2)N(C)C(=O)c2cnccn2)cc1 (configuration not stated)	>57	-1%
COc1cccc(OC)c1OCCOCCn1cnc2ccccc2c1=O	>57	?
O=C(NCC1CCCO1)C1CCN(S(=O)(=O)c2cccc3nonc23)CC1 (configuration not stated)	>57	6%
COCCNc1nc(C)nc2c1nc(-c1ccccc1)n2CCN1CCCCC1	.	-10%
COc1ccc(C2=NOC(C(=O)Nc3ccc(C)cc3)C2)cc1OC (configuration not stated)	>57	3%
Cc1ccc(CC2S/C(=C(/C#N)C(=O)NCc3ccco3)N(c3ccccc3)C2=O)cc1 (configuration not stated)	>57	-6%
Clc1ccc(OCc2nn3c(-c4ccco4)nnc3s2)cc1	>57	8%
Cc1c(NC(=O)CN2C(=O)C3C4C=CC(C4)C3C2=O)c(=O)n(-c2ccccc2)n1C (configuration not stated)	>57	-3%
O=C1NC2(CCCCC2)Oc2ccccc21	>57	10%
CCOCC(=O)Nc1sc2c(c1C(=O)OCC)CCCC2	>57	2%
Cc1cc(C)nc(SCC(=O)N2CCCCC2)n1	>57	2%
CCNS(=O)(=O)c1ccc(NC(=O)c2ccccc2OCC)cc1	>57	11%
Cc1c(NS(=O)(=O)c2ccc(Br)s2)c(=O)n(-c2ccccc2)n1C	>57	14%
COc1ccc(CNc2cc(-c3ccccc3OC)ncn2)c(OC)c1	>57	-19%
COC(=O)C(C#N)C(=C1C(=O)CC(C)(C)CC1=O)c1ccc(O)cc1 (configuration not stated)	.	0%
O=C(CC(SCCO)c1ccc2c(c1)OCO2)c1cccs1 (configuration not stated)	>57	-2%
CCS(=O)(=O)N1CCCC(C(=O)NCc2cccc(OC)c2)C1 (configuration not stated)	>57	5%
COC(=O)[C@@]1(Cc2ccc(F)cc2)[C@H]2c3cc(C(=O)N(C)C)n(CCN4CCOCC4)c3C[C@H]2CN1C(=O)c1ccccc1	>57	-3%
Cc1ccc(CNc2oc(-c3ccco3)nc2C#N)cc1	.	0%
CCN1CCN(C(c2cccs2)C(C)NC(=O)c2ccco2)CC1 (configuration not stated)	>57	-5%
C[C@H](Cc1ccc(O)c(O)c1)[C@@H](C)Cc1ccc(O)c(O)c1	>57&>57	16µM*!
O=C(CNC(=O)c1ccco1)NCC(=O)OCc1cccc(C(=O)Oc2ccccc2)c1	>57	.
CCCn1c(SCC(=O)c2ccc3c(c2)OCCO3)nnc1-c1ccco1	>57	3%
O=C(CCC(=O)c1cccs1)NCc1ccccc1	>57	12%
CCOc1ccc2nc3c(cc2c1)CN(CCCO)C(=NCCOC)S3	>57	?
CN1CCN(c2ncnc3ccc(-c4cccnc4)cc23)CC1	>57	3%
COc1ccc(NC(=O)CS(=O)CC(=O)Nc2ccc(OC)c(OC)c2)cc1 (configuration not stated)	>57	-4%
COc1ccc(CCNC(=O)c2cccnc2)cc1OC	>57	-3%
COC(=O)CSc1nnc(SCc2ccccc2)s1	>57	-8%
CCCCn1c(SCC(=O)NCc2ccco2)nnc1-c1ccoc1C	>57	?
N#Cc1ccc(CN2CC3(CCNCC3)C2)cc1	>57	?
COc1ccccc1CNc1ncnc2ccc(-c3ccccc3C#N)cc12	>57	?
O=C(Nc1nnc(-c2ccccc2Cl)o1)c1ccco1	>57	-2%
CCOC(=O)C1=C(C)Nc2ncnn2C1c1cc(OC)ccc1OC (configuration not stated)	.	-9%
O=C(NCc1cccs1)c1cc(-c2cccc(Cl)c2)on1	>57	-15%
O=C1C2CCCN2C(c2ccc(F)cc2)N1c1cccc(Cl)c1 (configuration not stated)	>57	-11%
O=c1cc(COn2nnc3ccc(C(F)(F)F)cc32)nc2sccn12	>57	9%
CN1CCC(NC(=O)Cc2c(F)cccc2Cl)CC1	>57	.
Cc1ccc(C(N)=S)c(C)c1	>57	10%

Reprinted at random: two records from the list
SMILES	Prx2 Sm inh	Anthrax LT inh
O=C(CC(SCCO)c1ccc2c(c1)OCO2)c1cccs1 (configuration not stated)	>57	-2%
C[C@H](Cc1ccc(O)c(O)c1)[C@@H](C)Cc1ccc(O)c(O)c1	>57&>57	16µM*!

Next records.
SMILES	Prx2 Sm inh	Anthrax LT inh
COc1ccc(C(=O)N2CCN(C3CCC(c4ccccc4)CC3)CC2)cc1OC (configuration not stated)	>57	-9%
Cn1cccc1C(=O)N1CCC2(CCCN(Cc3ccccc3)C2)CC1	>57	?
O=c1c2ccccc2nnn1CSc1nnc(-c2cccnc2)n1-c1ccccc1F	>57	-11%
COc1ccc(C)cc1N(CC(=O)Nc1cccc(N(C)S(C)(=O)=O)c1)S(C)(=O)=O	>57	-15%
CCOC(=O)N1CCN(CC(=O)c2c(C)[nH]c3ccccc23)CC1	>57	-8%
CN(C)CCNc1nc2c(c(=O)n(C)c(=O)n2C)n1C	>57	-7%[8 µM]
CCN1CCN(C(=O)c2cc3nc(-c4ccccc4)cc(C(F)(F)F)n3n2)CC1	>57	-2%
S=C(NC1CCCCC1)N1CCC(c2cnc[nH]2)CC1	>57&>57	4%&-7%
Cc1cccc(N2CCN(C(=O)Cc3c(C(=O)O)[nH]c4ccc(Cl)cc34)CC2)c1C	>57	0%
Cc1nc(CCNC(=O)COc2ccccc2)cs1	>57	10%
O=c1c2c(nc3c(-c4cccc5ccccc45)c[nH]n13)CCC2	>57	7%
CC(C)(C)NC(=O)Nc1ccccc1C(N)=O	>57	-1%
CCOc1ccc(-n2c(COc3ccc(C)cc3)nnc2SCC(N)=O)cc1	>57	-24%
CC(C)N=c1cc2n(-c3ccc(Cl)cc3)c3ccccc3nc-2cc1Nc1ccc(Cl)cc1	>57	-13%[3.58 µM]
CC(C)C(=O)Nc1cccc(C(=O)Nc2ccc3c(c2)OCO3)c1	>57	-25%
Cc1cccc(CNc2nc(-c3ccccc3CN(C)C)nc3ccccc23)c1	>57	?
Cn1c(=O)cc(SCC(=O)N2CCC3(CC2)OCCO3)c2ccccc21	>57	13%
CCOCCCNc1nc2c(c(=O)n(C)c(=O)n2C)n1CCCc1ccccc1	>57	-5%
O=C(CN1CCC(O)CC1)N1c2ccccc2C=Cc2ccccc21	>57	-6%
O=C(c1ccc(O)cc1)c1ccc(C(=O)O)c(C(=O)O)c1	>57	1%
Cn1c(/C(C#N)=C2/CCCCCN2)nc2ccccc21	>57	-4%
COc1ccc(NC(=O)CSc2nnc(Cn3c(=O)sc4ccccc43)n2C)cc1	>57	-5%
O=C(Nc1ccccc1)N1CCC2(CC1)CCN(C(=O)c1cnccn1)CC2	>57	-4%
CC(=O)N[C@@H](C(=O)O)C(C)(C)SN=O	>57&>57	?
Cn1c(NCCCN2CCOCC2)nc2c1c(=O)n(Cc1ccc(Cl)cc1Cl)c(=O)n2C	>57	-13%
COc1cccc(NC(=O)Cn2c(SCC(=O)N3CCOCC3)nc3ccccc32)c1	>57	8%
COc1cc2c(cc1OC)-c1nnc(-c3cccs3)n1C(C)(C)C2	>57	-7%
CCOC(=O)C(NC(=O)c1ccccc1)=C1C=C(C)OC(C)=C1	.	-8%
Cc1cc(NS(=O)(=O)c2ccc(NC(=O)Cc3cccs3)cc2)no1	>57	2%
Cc1noc(C)c1C(=O)NCc1ccco1	>57	16%
O=C(c1cc(O)c(O)c([N+](=O)[O-])c1)c1ccccc1F	>57	2%
Cn1cccc1C(=O)OCc1cc(Cl)cc2c1OCOC2	>57	?
Cc1ccc(-n2c(O)c(C=NCc3cccnc3)c(=O)[nH]c2=O)cc1C	>57	?
CCc1c(C)nc(N)n2c(SCC(=O)Nc3ccccc3OC)nnc12	>57	?
C[N+](C)(CCCCCC[N+](C)(C)CCCN1C(=O)c2ccccc2C1=O)CCCN1C(=O)c2ccccc2C1=O	>57	?
Cc1c(NC(=O)CSc2ccccn2)c(=O)n(-c2ccccc2)n1C	>57	-6%

Brought forward from above: 5 entries, followed by the next part.
SMILES	Prx2 Sm inh	Anthrax LT inh
Cn1cccc1C(=O)OCc1cc(Cl)cc2c1OCOC2	>57	?
Cc1ccc(-n2c(O)c(C=NCc3cccnc3)c(=O)[nH]c2=O)cc1C	>57	?
CCc1c(C)nc(N)n2c(SCC(=O)Nc3ccccc3OC)nnc12	>57	?
C[N+](C)(CCCCCC[N+](C)(C)CCCN1C(=O)c2ccccc2C1=O)CCCN1C(=O)c2ccccc2C1=O	>57	?
Cc1c(NC(=O)CSc2ccccn2)c(=O)n(-c2ccccc2)n1C	>57	-6%
COCCNC(=O)[C@H](C)[C@H]1C[C@]1(C)[C@H](NC(=O)OCc1ccccc1)c1ccccc1	>57	?
CCCCOc1ccccc1NC(=O)Cn1c(-c2nonc2N)nc2ccccc21	>57	?
Cc1ccc(NC(=O)C2CC(=O)NC(N3CCc4ccccc43)=N2)cc1 (configuration not stated)	>57	-20%
CCCCCc1c(C)nc(Nc2ccccc2)[nH]c1=O	>57	-1%
O=C(CN1CCOc2ccccc21)N1CCC(Cc2ccccc2)CC1	>57	?
CCOC(=O)N1CCC(Nc2c(NCCCN(C)Cc3ccccc3)c(=O)c2=O)CC1	>57	6%
Cc1ccc(N(C(=O)c2ccncc2)C2C=CS(=O)(=O)C2)cc1 (configuration not stated)	>57	-4%
c1ccc(N2CCC3(CCNCC3)CC2)nc1	>57	?
C=CCn1c(SCc2cccc(C#N)c2)nnc1-c1ccccc1O	>57	-22%
Cc1ccc(-c2cc(C(=O)NCCCN3CCOCC3)no2)cc1	>57	2%
Cc1ccc(-n2nnc3c(=O)n(Cc4cc(C)ccc4C)cnc32)cc1	>57	-12%
O=C(O)CCCCCN1C(=O)c2ccc(C(=O)O)cc2C1=O	>57	-7%
